KCNQ2 inh = KCNQ2 channel blockers in CHO-K1 cells – cell-based, FluxOR thallium flux, B-score, primary screen (AID 2156). O88943. 20 min; hits give low values; only compounds with negative scores are shown here; some inactives read as strong as hits. B-score at 10 µM. hit rate 1.1% among 310,000;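 active = fluorescence ratio B-score at most minus 3 library SDs, with starting brightness B-score within 2 library SDs, cut at about -5.5 in these data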
Target sequence (O88943 whole entry, looked up): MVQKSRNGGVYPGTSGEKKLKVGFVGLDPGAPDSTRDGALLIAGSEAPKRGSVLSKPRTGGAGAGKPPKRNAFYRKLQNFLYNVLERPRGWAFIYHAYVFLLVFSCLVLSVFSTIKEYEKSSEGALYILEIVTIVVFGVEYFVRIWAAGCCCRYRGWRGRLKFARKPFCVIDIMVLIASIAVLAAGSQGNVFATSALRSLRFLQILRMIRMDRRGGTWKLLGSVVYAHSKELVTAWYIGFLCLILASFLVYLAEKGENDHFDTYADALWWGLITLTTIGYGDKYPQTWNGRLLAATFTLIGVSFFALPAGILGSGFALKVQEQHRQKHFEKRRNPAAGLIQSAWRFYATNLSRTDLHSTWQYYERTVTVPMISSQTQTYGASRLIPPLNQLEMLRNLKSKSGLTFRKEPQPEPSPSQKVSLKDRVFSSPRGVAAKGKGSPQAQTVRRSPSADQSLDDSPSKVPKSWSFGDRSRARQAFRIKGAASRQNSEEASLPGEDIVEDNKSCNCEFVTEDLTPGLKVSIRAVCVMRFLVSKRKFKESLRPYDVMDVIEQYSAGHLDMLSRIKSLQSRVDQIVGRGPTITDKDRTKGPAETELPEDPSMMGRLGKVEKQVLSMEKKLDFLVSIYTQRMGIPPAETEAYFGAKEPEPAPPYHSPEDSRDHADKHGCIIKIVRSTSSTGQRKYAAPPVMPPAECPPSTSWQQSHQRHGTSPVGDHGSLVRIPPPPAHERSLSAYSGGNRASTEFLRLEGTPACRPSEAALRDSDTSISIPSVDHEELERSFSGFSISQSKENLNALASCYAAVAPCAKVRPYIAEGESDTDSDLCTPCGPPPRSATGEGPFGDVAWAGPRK
KCNQ2 inh baseline = further read-out of KCNQ2 inh, marked with its call; B-score; measured here: initial fluorescence intensity artifact check;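 brightness before thallium and not channel activity; 0 = typical well and far values either way flag optical interference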
Starred values were filed as active, the others as inactive; & = joins results of further samples.

NC(=O)COc1ccc(/C=N/NS(=O)(=O)c2ccccc2)cc1 was read as KCNQ2 inh inactive and KCNQ2 inh baseline 0.87.
`Cc1ccc(C(C(=O)NC2CCCCC2)N2CCC3(CC2)OCCO3)cc1` (stereo not drawn) gave KCNQ2 inh inactive and KCNQ2 inh baseline 1.3.
S=C(Nc1cc(Cl)cc(Cl)c1)N1CCN(c2ccccn2)CC1 was read as KCNQ2 inh inactive and KCNQ2 inh baseline -1.9.
`Cc1ccc(C)c(CSc2ncccc2C(=O)O)c1` gave KCNQ2 inh inactive and KCNQ2 inh baseline 1.5.
Screening CCNC(=O)CN(C1CCCCC1)S(C)(=O)=O returned KCNQ2 inh inactive and KCNQ2 inh baseline 0.74.
Screening CCc1nnc(NC(=O)CSc2nnc(CNC(=O)c3ccc(OC)c(OC)c3)o2)s1 returned KCNQ2 inh inactive and KCNQ2 inh baseline 0.6.
O=C(C1CC1)N1CCN=C1SCc1ccc(Cl)cc1 was read as KCNQ2 inh inactive and KCNQ2 inh baseline 0.7.
Cc1ccc(S(=O)(=O)N2CCC(C(=O)NCC3CCCO3)CC2)cc1 (stereo not drawn) was read as KCNQ2 inh inactive and KCNQ2 inh baseline 0.09.
`Cc1ccccc1NC(=O)N(C(C)C)C(C)C` gave KCNQ2 inh inactive and KCNQ2 inh baseline -0.75.
`CCOC(=O)C1=C(C)N(Cc2ccccc2)C(=O)NC1c1ccccc1OS(=O)(=O)c1ccccc1[N+](=O)[O-]` (stereo not drawn) gave KCNQ2 inh inactive and KCNQ2 inh baseline -0.38.
Screening O=C(c1ccccc1)N1CCN(CCc2ccccn2)CC1 returned KCNQ2 inh inactive and KCNQ2 inh baseline 0.7.
`O=C(c1ccc(Cl)cc1)c1cnc2ccccn12` gave KCNQ2 inh inactive and KCNQ2 inh baseline 0.03.
`O=c1c2ccccc2nc(/C=C/c2ccc([N+](=O)[O-])cc2)n1CCCO` gave KCNQ2 inh inactive and KCNQ2 inh baseline -2.7.
For C/C(=N\NC(=O)c1ccc(O)cc1)c1cc2ccccc2o1 the results were KCNQ2 inh inactive and KCNQ2 inh baseline -2.3.
`O=c1[nH]c2sc3c(c2c(=O)n1Cc1ccccc1)CCC3` gave KCNQ2 inh inactive and KCNQ2 inh baseline -1.5.
`CCN1C(C#N)=C(C#N)N=C(C)CC1(C)C` gave KCNQ2 inh inactive and KCNQ2 inh baseline 0.49.
For COc1ccc(CCNC(=O)CNS(=O)(=O)c2ccc(Br)s2)cc1OC the results were KCNQ2 inh inactive and KCNQ2 inh baseline 0.28.
CCCC(=O)N1CCCC(C(=O)c2cccc(OC(C)C)c2)C1 (stereo not drawn) was read as KCNQ2 inh inactive and KCNQ2 inh baseline 2.3.
For O=C(Nc1ccc(Nc2ccccc2)cc1)c1ccc(Cl)cc1Cl the results were KCNQ2 inh inactive and KCNQ2 inh baseline 1.2.
Screening O=C(CSc1nc(-c2ccccc2)c(-c2ccccc2)[nH]1)NCc1ccco1 returned KCNQ2 inh inactive and KCNQ2 inh baseline -0.05.
`CS(=O)(=O)N(Cc1ccccc1)c1ccc(C(=O)N2CCN(c3cccc(Cl)c3)CC2)cc1` gave KCNQ2 inh inactive and KCNQ2 inh baseline 1.8.
Screening O=C(c1ccccc1Cl)N1CCN(c2ncccn2)CC1 returned KCNQ2 inh inactive and KCNQ2 inh baseline -0.92.
Brc1ccc(NCc2cccc3ccccc23)nc1 was read as KCNQ2 inh -6* and KCNQ2 inh baseline -0.23*.
Cc1ccc(-c2onc3ccc(C4(C)OCCO4)cc23)cc1 was read as KCNQ2 inh inactive and KCNQ2 inh baseline -0.32.
`CCCCC(c1nnnn1CCOC)N1CCN(C)CC1` (stereo not drawn) gave KCNQ2 inh inactive and KCNQ2 inh baseline 1.6.
Screening COc1ccc2c(c1)c(CC(=O)Nc1ccccc1OC)c(C)n2C(=O)c1ccc(Cl)cc1 returned KCNQ2 inh inactive and KCNQ2 inh baseline -1.9.
Screening CCC1C(=O)N=C(SCC(=O)Nc2cccc3ccccc23)NC1=O (stereo not drawn) returned KCNQ2 inh inactive and KCNQ2 inh baseline 0.81.
For Cc1c(C#N)c(N)nc2c3c(sc12)NC(=O)CC3c1ccc(F)cc1 (stereo not drawn) the results were KCNQ2 inh inactive and KCNQ2 inh baseline 2.1.
Screening CCOC(=O)Cn1c(-c2ccccc2)nc2ccccc2c1=O returned KCNQ2 inh inactive and KCNQ2 inh baseline 0.37.
Screening CC(=O)c1ccc(NC(=O)Cn2nc(C)cc2C)cc1 returned KCNQ2 inh inactive and KCNQ2 inh baseline -1.5.
For CC(=O)Nc1ccc(SCc2csc(C)n2)cc1 the results were KCNQ2 inh inactive and KCNQ2 inh baseline 1.3.
For COc1ccc2cc(C(=O)C3CCCN(C(=O)CCc4ccccn4)C3)ccc2c1 (stereo not drawn) the results were KCNQ2 inh inactive and KCNQ2 inh baseline 0.92.
Screening Cc1ccc(-n2c(O)c(/C=N/n3cnnc3)c3ccccc3c2=O)cc1 returned KCNQ2 inh inactive and KCNQ2 inh baseline -0.15&0.49.
O=C(NCCCN1CCOCC1)c1cc2c([nH]c3ccccc32)c(-c2cccc(Br)c2)n1 was read as KCNQ2 inh inactive and KCNQ2 inh baseline -0.7.
Screening CCOC(=O)C1=C(N)n2c(s/c(=C\c3cccs3)c2=O)=C(C(=O)OCC)C1c1cccs1 (stereo not drawn) returned KCNQ2 inh inactive and KCNQ2 inh baseline -0.61.
`CC(=O)C1=C(O)C(=O)N(c2ccc(Br)cn2)C1c1ccc(Br)cc1` (stereo not drawn) gave KCNQ2 inh inactive and KCNQ2 inh baseline 1.5.
Screening Cc1ccccc1C(=O)NC(=S)Nc1ccc2[nH]c(=O)[nH]c2c1 returned KCNQ2 inh inactive and KCNQ2 inh baseline -0.98.
For CSc1ccccc1OCc1cc(C(=O)N(C)CCn2nc(C)cc2C)no1 the results were KCNQ2 inh inactive and KCNQ2 inh baseline -0.08.
For CC(=O)c1ccc(-n2c(CCC(=O)O)ccc2-c2ccc(Cl)cc2)cc1 the results were KCNQ2 inh inactive and KCNQ2 inh baseline 0.56.
Screening COc1ccc(-c2cc(C(F)(F)F)nc(SCC(=O)Nc3ccc4c(c3)OCO4)n2)cc1OC returned KCNQ2 inh inactive and KCNQ2 inh baseline 0.44.
`Cc1ccc(C(=O)SC2=NCCS2)cc1` gave KCNQ2 inh inactive and KCNQ2 inh baseline 0.73.
For COc1ccc(/C=C2\SC(=S)N(NC(=O)c3csc4c3CCCC4)C2=O)cc1 the results were KCNQ2 inh inactive and KCNQ2 inh baseline -0.69.
Screening NC(=O)Nc1ccc(C(=O)OCC(=O)N(Cc2ccccc2)C2CCS(=O)(=O)C2)cc1 (stereo not drawn) returned KCNQ2 inh inactive and KCNQ2 inh baseline -1.2.
O=C(CSc1n[nH]c(=O)[nH]c1=O)Nc1ccccc1C(=O)c1ccccc1 was read as KCNQ2 inh inactive and KCNQ2 inh baseline -0.12.
For C/C(=N/N1CCN(c2ccccc2)CC1)c1cccc([N+](=O)[O-])c1 the results were KCNQ2 inh inactive and KCNQ2 inh baseline 0.11.
For COc1ccc(C)cc1NC(=O)NCCC1=CCCCC1 the results were KCNQ2 inh inactive and KCNQ2 inh baseline 0.39.
COc1cc(C2C3CN(C)CC=C3C(C#N)=C(N)C2(C#N)C#N)ccc1OC(C)C (stereo not drawn) was read as KCNQ2 inh inactive and KCNQ2 inh baseline 1.7.
For COC(=O)c1ccccc1C(=O)N1CCOCCOCCOCC1 the results were KCNQ2 inh inactive and KCNQ2 inh baseline -0.03.
Screening Cc1ccc(Sc2ncccc2C(=O)NCC(c2ccc(F)cc2)N2CCOCC2)cc1C (stereo not drawn) returned KCNQ2 inh inactive and KCNQ2 inh baseline -0.96.
Screening C=CCn1c(SCC(=O)Nc2ccccc2F)nc2ccccc2c1=O returned KCNQ2 inh inactive and KCNQ2 inh baseline 0.04.
For CC(=O)c1cccc(NC(=O)N2C3CCC2CC(NC(=O)C2CC2)C3)c1 (stereo not drawn) the results were KCNQ2 inh inactive and KCNQ2 inh baseline -0.74.
`O=C(NC1CC1)c1ccc(N2CCCCC2)c([N+](=O)[O-])c1` gave KCNQ2 inh inactive and KCNQ2 inh baseline -0.11.
`C[C@H](NC(=O)c1ccc2c(c1)OCO2)c1nnc2ccccn12` gave KCNQ2 inh inactive and KCNQ2 inh baseline 0.5.
For CC1(C)CC(=O)C(C2=NC3(CCCCCC3)Cc3ccccc32)=C(O)C1 the results were KCNQ2 inh -5.8* and KCNQ2 inh baseline -0.56*.
For CC(=O)Nc1ccc(S(=O)(=O)NCC(=O)OCC(=O)NC(=O)c2cccn2C)cc1 the results were KCNQ2 inh inactive and KCNQ2 inh baseline 1.4.
O=C(CCc1ccccc1)NC(c1cccs1)c1cc(Cl)c2cccnc2c1O (stereo not drawn) was read as KCNQ2 inh inactive and KCNQ2 inh baseline 1.1.
For COc1ccccc1Nc1nnc(Cc2ccccc2)c(=O)[nH]1 the results were KCNQ2 inh inactive and KCNQ2 inh baseline 0.78.
For COc1ccccc1NC(=O)C(C)N(C)CCOc1ccccc1 (stereo not drawn) the results were KCNQ2 inh inactive and KCNQ2 inh baseline 1.6.
`CCOC(=O)C1(CCOc2ccccc2)CCN(Cc2cc(OC)cc(OC)c2)CC1` gave KCNQ2 inh inactive and KCNQ2 inh baseline -0.92.
For Cc1cc(NCc2ccccc2)nc(-c2ccccc2O)n1 the results were KCNQ2 inh inactive and KCNQ2 inh baseline 0.04.

Of the compounds above, 4 have a nitro group on carbon.
`CCOC(=O)C1=C(C)N(Cc2ccccc2)C(=O)NC1c1ccccc1OS(=O)(=O)c1ccccc1[N+](=O)[O-]` (stereo not drawn) gave KCNQ2 inh inactive and KCNQ2 inh baseline -0.38.
`O=c1c2ccccc2nc(/C=C/c2ccc([N+](=O)[O-])cc2)n1CCCO` gave KCNQ2 inh inactive and KCNQ2 inh baseline -2.7.
For C/C(=N/N1CCN(c2ccccc2)CC1)c1cccc([N+](=O)[O-])c1 the results were KCNQ2 inh inactive and KCNQ2 inh baseline 0.11.
`O=C(NC1CC1)c1ccc(N2CCCCC2)c([N+](=O)[O-])c1` gave KCNQ2 inh inactive and KCNQ2 inh baseline -0.11.

Structures listed so far that have a furan ring, fused or not:
For C/C(=N\NC(=O)c1ccc(O)cc1)c1cc2ccccc2o1 the results were KCNQ2 inh inactive and KCNQ2 inh baseline -2.3.
Screening O=C(CSc1nc(-c2ccccc2)c(-c2ccccc2)[nH]1)NCc1ccco1 returned KCNQ2 inh inactive and KCNQ2 inh baseline -0.05.

(more compounds)
For Cc1ccc(CN2CCN(/N=C/C=C/c3ccccc3[N+](=O)[O-])CC2)cc1 the results were KCNQ2 inh inactive and KCNQ2 inh baseline 0.53.
Screening O=C(Nc1ccccc1)N1CCCC1c1cccs1 (stereo not drawn) returned KCNQ2 inh inactive and KCNQ2 inh baseline -0.85.
CN1CC2(Cc3c1ccc1ccccc31)C(=O)OC(C)(C)OC2=O was read as KCNQ2 inh inactive and KCNQ2 inh baseline -0.31.
Screening CCCN(CC(=O)Nc1ccccc1C)C(=O)c1ccc2ccccc2n1 returned KCNQ2 inh inactive and KCNQ2 inh baseline 0.69.
Screening Cc1ccc(N=Nc2c(O)n(CN3CCOCC3)c3ccccc23)cc1 returned KCNQ2 inh inactive and KCNQ2 inh baseline 3.6.
COC(=O)C(=Nc1ccccc1)/C(C(=O)C(=O)N(C)c1ccccc1)=C(\O)c1ccc(Cl)cc1 was read as KCNQ2 inh inactive and KCNQ2 inh baseline 0.22.
Screening COc1ccc(NC(=O)CSCC(=O)Nc2nnc(C3CC3)s2)cc1 returned KCNQ2 inh inactive and KCNQ2 inh baseline 0.93.
Cc1ccccc1Nc1scc(-c2ccc(Br)cc2)[n+]1-c1ccccc1C was read as KCNQ2 inh inactive and KCNQ2 inh baseline -0.15.
`COc1cc(NC(=O)COc2ccccc2C)ccc1NC(=O)c1ccco1` gave KCNQ2 inh inactive and KCNQ2 inh baseline -0.67.
COc1ccc(CC(NC(C)=O)C(=O)NC2CCN(c3c(Cc4ccccc4)c(C)nc4ncnn34)CC2)c(OC)c1 (stereo not drawn) was read as KCNQ2 inh inactive and KCNQ2 inh baseline -0.97.
For Cc1onc(-c2ccccc2Cl)c1C(=O)NC(=S)Nc1ccccc1C(N)=O the results were KCNQ2 inh inactive and KCNQ2 inh baseline 1.3.
For COCC(C)NC(=O)/C(=C/c1ccccc1)c1ccccc1 (stereo not drawn) the results were KCNQ2 inh inactive and KCNQ2 inh baseline -0.36.
Screening CCOc1ccc(Br)cc1CNc1ccc2c(c1)OCCO2 returned KCNQ2 inh inactive and KCNQ2 inh baseline -1.4.
O=C(Cc1n[nH]c(=O)c2ccccc12)OCC(=O)c1ccc(OC(F)F)cc1OC(F)F was read as KCNQ2 inh inactive and KCNQ2 inh baseline 4.2.
For CC(C)c1ccc(NC(=O)CSc2nc(=O)n(CCCN3CCOCC3)c3c2CCCC3)cc1 the results were KCNQ2 inh inactive and KCNQ2 inh baseline -0.49.
Screening CN1CCN(Cc2nc3ccccc3c(=O)n2Cc2nc(-c3ccc([N+](=O)[O-])cc3)cs2)CC1 returned KCNQ2 inh inactive and KCNQ2 inh baseline 2.8.
N#C/C(=C\c1ccccc1C(F)(F)F)C(=O)Nc1ccccc1F was read as KCNQ2 inh inactive and KCNQ2 inh baseline 1.
Screening C=CCN(c1nc(C)cc(OC)n1)S(=O)(=O)c1ccccc1 returned KCNQ2 inh inactive and KCNQ2 inh baseline 0.49.
Screening C=CCc1cccc2cc(C(=O)N3CCOCC3)c(=O)oc12 returned KCNQ2 inh inactive and KCNQ2 inh baseline 0.03.
For CCCCCCC(=O)NCC(=O)OCC(=O)c1ccccc1 the results were KCNQ2 inh inactive and KCNQ2 inh baseline 0.02.

Compound activity as filed in PubChem BioAssay.

An excerpt; the hit share may differ from the screen's.
